# MT1-MMP act inh = MT1-MMP (human) activation inhibition; P50281; HT1080 RFP-PRO-GFP cells, GFP/RFP ratio fluorescence, overnight; percent of plate control window, DMSO zero; GFP/RFP ratio change, % at 20 µM; 360,000 compounds, 0.061% hits; AID 651647;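 active = GFP/RFP ratio change of at least 30% with cell ATP level not reduced by more than half and red fluorescence within 50% of control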; note: strong numbers were not always called active
#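 Assay system: HT1080 RFP-PRO-GFP cells | Dosing: 20 µM single dose, 1% DMSO | Incubation: Cells overnight before dosing, compound overnight, 37 °C, 5% CO2 | Evaluation: GFP/RFP fluorescence ratio | Control set: DMSO-only wells and HT1080 RFP-L50D-GFP cell wells as references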
# Rce1 inhib = blocks yeast Ras-converting enzyme | yeast membranes, quenched prenylated peptide cleavage fluorescence | calls only | Q03530 | 290,000 compounds, 0.27% hits;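 active = fall in fluorescence gain of 50% or more versus controls, with final raw signal at or below 3038400; inconclusive = same 50% fall but final raw signal above 3038400; inactive = fall in fluorescence gain under 50%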;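 note: plate controls were neutral control wells for no effect and wells lacking membranes for full effect; tested at 10 µM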
# Target sequence (Q03530 whole entry, looked up): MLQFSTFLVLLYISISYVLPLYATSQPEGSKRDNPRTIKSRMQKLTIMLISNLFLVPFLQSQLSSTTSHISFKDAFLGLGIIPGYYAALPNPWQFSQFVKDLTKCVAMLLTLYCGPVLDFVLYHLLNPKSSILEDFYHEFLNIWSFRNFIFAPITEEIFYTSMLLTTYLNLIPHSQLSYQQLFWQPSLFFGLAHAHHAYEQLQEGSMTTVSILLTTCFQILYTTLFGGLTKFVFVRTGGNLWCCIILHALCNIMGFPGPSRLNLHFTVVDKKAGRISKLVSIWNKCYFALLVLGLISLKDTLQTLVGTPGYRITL
# eIF4H inh = inhibitors of RNA binding by human eIF4H | Q15056 | eIF4H fluorescence polarization binding assay | inhibition, % at 35 µM | 290,000 compounds, 0.94% hits | AID 2012;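 active = 50% or more with normal probe brightness, or confirmed in later tests; inconclusive = above 50% with abnormal brightness, or retests that disagree; inactive = below 50% or failed in later tests; about a fifth of its hits are not listed in these tables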;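 note: calls also rest on retests at 20 µM and on dose response follow-up; 0% = protein and probe with vehicle and 100% = probe without protein; strong numbers were not always called active; many hits fall short of the cut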
# PABP FP inh = PABP-poly(A) binding inhibition | inhibition, % at 35 µM | P11940 | PABP-poly(A) RNA binding, fluorescence polarization | 290,000 compounds, 1% hits;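 active = 50% or more with normal probe brightness, or confirmed in later tests; inconclusive = above 50% with abnormal brightness, or retests that disagree; inactive = below 50% or failed in later tests; about a fifth of its hits are not listed in these tables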;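 note: calls also rest on retests at 20 µM and on dose response follow-up; controls were probe without protein and protein plus probe with vehicle; some compounds called inactive have numbers as strong as hits; many hits fall short of the cut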
# CSC inhib = blocks cancer stem cells; cancer stem cell-like cells viability, luminescence; 300,000 compounds, 1.1% hits; inhibition, % at 7.5 µM;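 active = mean at 75% or more and at least half the replicates too; inconclusive = mean and replicates disagree; tested in HMLE shEcad cells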;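 note: 0% = median of negative and 100% = median of positive control wells; the first replicate is given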
# UUG fidelity = alters start codon recognition fidelity in yeast; activity score, % at 18.7 µM; AID 602363; 350,000 compounds, 0.13% hits; S. cerevisiae UUG-firefly luciferase reporter, luminescence/redox ratio;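 active = replicate mean at a twofold rise or more, about +100% in these data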;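 note: firefly luciferase made from a UUG start codon reports start codon fidelity; reporter light over untreated wells divided by growth signal over untreated wells; some hits fall short of that in this replicate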
# Env fusion inh = inhibitors of HIV Env-mediated cell fusion | HeLa-JRFL Env/CEM21 cell fusion, luciferase | inhibition, % at 12.3 µM | 360,000 compounds, 1.1% hits | AID 651610;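 active = mean replicate inhibition score of at least 50 and every replicate individually at or above 50; inconclusive = only one of the two criteria met; inactive = mean below 50 and not all replicates reaching 50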;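 note: 0% = plate neutral controls and 100% = maraviroc near 300 nM; one replicate is shown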
# eIF4H inh retest = recorded beside eIF4H inh, whose call it bears; inhibition, %; compound at 20 µM; confirmation average;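 mean of two retest wells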
# PABP FP inh retest = also measured in PABP FP inh; calls as there; inhibition, %; compound at 20 µM; confirmation repeats;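 mean of two retest wells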
# MT1-MMP act inh RFP = further read-out of MT1-MMP act inh, marked with its call; RFP signal change, %; measured here: RFP expression control read;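 0 = vehicle wells; hits needed this value within 50% of zero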
# The depositor's hits bear a star; i = inactive; ? = inconclusive; nt = not tested or not shown.
SMILES,MT1-MMP act inh,MT1-MMP act inh RFP,Rce1 inhib,eIF4H inh,PABP FP inh,CSC inhib,UUG fidelity,Env fusion inh,others
COc1ccc(C2CC(c3c(-c4ccccc4)c4cc(Cl)ccc4[nH]c3=O)=NN2S(C)(=O)=O)cc1 (configuration not stated),1,6,i,0,-9,-6,17,nt,
O=C(CSC1=NS(=O)(=O)c2ccccc2N1)N1CCCCC1,2,0,i,nt,nt,-1,-20,-2,
O=C(O)Cc1ccc(NC(=S)Nc2ccc(Br)cc2Cl)cc1,1,-1,i,1,-6,-7,-17,12,
O=C1N/C(=N/O)S/C1=C/c1cccnc1,6,1,i,2,-4,-8,-2,-2,
O=c1cc(N2CCOCC2)[nH]c(=O)n1C1CCCCC1,-3,6,i,-12,-6,-14,-2,nt,
CC(NC(=O)COC(=O)c1ccc[nH]c1=O)c1ccccc1 (configuration not stated),1,5,nt,nt,nt,5,-16,-59,
CC1=NN(C(=O)c2cccc(Cn3nc(C)c([N+](=O)[O-])c3C)c2)C(O)(C(F)(F)F)C1 (configuration not stated),7,2,i,6,6,-9,nt,nt,
Cc1oc(-c2cc(F)cc(F)c2)nc1CN1CCSCC1,2,3,i,-2,-11,-10,nt,11,
Cc1ccccc1-c1cc(C(=O)NCc2cccc(Br)c2)nn1CC1CC(c2cccc([N+](=O)[O-])c2)=NO1 (configuration not stated),9,-2,nt,nt,nt,nt,-9,-10,
CC(C)(C)N(CC#CCC(O)(c1ccccc1)c1ccccc1)CCO,2,1,i,20,11,7,nt,-37,
O=C(CC1CCCC1)Nc1nc2ccccc2[nH]1,5,4,i,0,-2,-10,-15,-46,
CC(C)Cn1cnc2c(N)nc3ccccc3c21,5,2,nt,5,-6,nt,-18,4,
CCOC(=O)c1c(C)sc2c1N(C(C)=O)c1cc(Cl)ccc1S2,-10,-3,i,-3,-9,11,-2,nt,
O=C1CCCN1CCCNc1nc(NCc2cccs2)nc2ccsc12,-16,-7,nt,nt,nt,nt,-7,5,
COC(=O)[C@]1(C)N[C@H](CN(C)S(=O)(=O)c2ccc(OC)cc2)[C@@H]2C(=O)N(C)C(=O)[C@@H]21,-1,4,nt,nt,nt,-12,6,28,
COc1ccc(Cc2c(-c3ccc(Cl)cc3)nc3c(C)cc(Br)cn23)c(C)c1,-4,-3,nt,nt,nt,nt,-10,-42,
COC(=O)N/N=C/c1cn(Cc2ccccc2F)c2ccccc12,3,-11,nt,4,-3,39,1,13,
COc1ccc(CCNC(=O)CCC(=O)c2cccs2)cc1OC,2,9,i,nt,nt,nt,-2,6,
C=C(C)C(=O)NC1=NN(c2ccccc2)C(=O)C1,2,-3,i,10,-2,1,nt,-15,
COc1ccc(OCC(=O)NCCCN2CCOCC2)cc1,-5,-3,i,1,-3,6,-15,-95,
CCOC(=O)C1C(=O)NC(c2ccccc2)=NC1c1ccc(Br)cc1 (configuration not stated),2,-1,i,-6,5,-7,7,11,
Cc1ccc(CNC(=O)c2cc(-c3cc(C)cc(C)c3O)n[nH]2)cc1,3,-1,i,-9,-4,-4,-18,-4,
CC(C)(C)S(=O)(=O)c1ccsc1C(=O)O,-7,3,i,-10,5,-15,nt,-2,
CCCN(CC(=O)Nc1cccc(Br)c1)CC(=O)Nc1ccc(F)c(F)c1F,3,-2,i,-2,-12,36,-11,-12,
Cc1ccc(C(=O)CSc2nc3cccnc3n2C)cc1,-2,1,i,-6,2,5,-4,-19,
CC(=O)N1c2ccc(S(=O)(=O)N3CCCC(C(=O)Nc4cccc(F)c4)C3)cc2CC1C (configuration not stated),-8,-20,i,-6,5,-3,-3,nt,
O=C(NCCc1c[nH]c2ccccc12)C(F)(F)C(F)F,1,3,i,-8,5,0,-6,nt,
Cc1nc2ccc(F)cc2cc1C(=O)Nc1ccc(Cl)c(Cl)c1,-2,-2,i,4,-9,-3,nt,19,
Cc1nc2ccccn2c1/C(O)=C1\C(=O)C(=O)N(CCN(C)C)C1c1ccco1 (configuration not stated),0,5,i,9,10,2,nt,-2,
O=C(CNC(=O)c1ccc2c(c1)OCO2)Nc1ncccc1O,3,7,i,nt,nt,-2,-47,nt,
COCCn1cnc2c1c(=O)n(Cc1c(F)cccc1Cl)c(=O)n2Cc1ccccc1,-4,-4,i,-4,8,1,-11,6,
Cc1cccc(C(=O)NCCCNC(=O)c2ccco2)c1,-1,1,i,12,-3,-16,-10,-1,
CC(C)c1ccc(S(=O)(=O)N2CCN(C(=O)C3CCN(C(=O)c4ccc(F)cc4)CC3)CC2)cc1,-1,-10,i,-7,3,-14,5,-3,
Cc1ccc2[nH]c3nc(SCCN4CCOCC4)nnc3c2c1,8,-6,i,5,14,-3,-23,-406,
N/C(=N\OC(=O)c1ccccc1[N+](=O)[O-])c1cccnc1,-4,-3,i,7,-2,1,-25,nt,
CCc1ccc(NC(=S)N(CCN(C)C)C(C)c2ccncc2)cc1 (configuration not stated),1,-3,i,-2,-2,-7,nt,6,
CSCCC(NC(=O)c1ccco1)c1nc2ccccc2[nH]1 (configuration not stated),-2,3,i,-6,0,-3,-27,15,
COc1ccccc1N=Nc1c(C)[nH]n(-c2ccccc2)c1=O,7,-4,i,11,7,-8,-14,-5,
Cc1cc(C(=O)Cn2c(CO)nc3ccccc32)c(C)n1C,-1,-2,i,?,?,-6,-24,2,
Cc1ccccc1C(=O)N=c1sccn1C,5,5,i,0,1,9,-17,nt,

# Random excerpt: 6 entries already listed.
SMILES,MT1-MMP act inh,MT1-MMP act inh RFP,Rce1 inhib,eIF4H inh,PABP FP inh,CSC inhib,UUG fidelity,Env fusion inh,others
CCc1ccc(NC(=S)N(CCN(C)C)C(C)c2ccncc2)cc1 (configuration not stated),1,-3,i,-2,-2,-7,nt,6,
Cc1nc2ccc(F)cc2cc1C(=O)Nc1ccc(Cl)c(Cl)c1,-2,-2,i,4,-9,-3,nt,19,
Cc1cc(C(=O)Cn2c(CO)nc3ccccc32)c(C)n1C,-1,-2,i,?,?,-6,-24,2,
COc1ccc(Cc2c(-c3ccc(Cl)cc3)nc3c(C)cc(Br)cn23)c(C)c1,-4,-3,nt,nt,nt,nt,-10,-42,
CSCCC(NC(=O)c1ccco1)c1nc2ccccc2[nH]1 (configuration not stated),-2,3,i,-6,0,-3,-27,15,
COc1ccccc1N=Nc1c(C)[nH]n(-c2ccccc2)c1=O,7,-4,i,11,7,-8,-14,-5,

# Next part.
SMILES,MT1-MMP act inh,MT1-MMP act inh RFP,Rce1 inhib,eIF4H inh,PABP FP inh,CSC inhib,UUG fidelity,Env fusion inh,others
O=C(Nc1ccc(Cl)c(C(=O)N2CCOCC2)c1)c1ccccc1,3,6,i,-5,-2,-12,-18,-4,
COc1ccc(NC(=O)CCS(=O)(=O)c2ccc3c(c2)CCCN3C(C)=O)cc1,-1,0,i,-2,0,10,-7,-30,
Cc1occc1C(=O)Nc1sccc1C(N)=O,1,2,i,21,27,4,-16,-117,
Cn1c(CCCOc2ccc(Cl)cc2Cl)nnc1SCC(=O)Nc1nccs1,11,-5,i,-7,3,nt,nt,26,
O=C(Nc1ccc(F)c(Cl)c1)c1cc(C2CCCCN2C(=O)c2cccs2)on1 (configuration not stated),-9,-19,nt,nt,nt,nt,-9,16,
COC(=O)c1cc2ccsc2n1Cc1ccccc1F,1,3,i,-7,-19,nt,-7,nt,
COc1ccc(C2CC(=O)Oc3c(C(C)C)ccc(C)c32)cc1 (configuration not stated),2,-1,nt,nt,nt,nt,-1,3,
COc1cc(CCC(=O)N2CCN(c3ccccc3)CC2)cc(OC)c1OC,0,0,nt,4,4,-8,-2,2,
Cc1ccc(C(=O)Nc2nnc(CC(=O)N/N=C/c3ccc(O)c(O)c3)s2)cc1,-6,1,i,nt,nt,-10,-17,9,
CCOc1ncccc1C(=O)Nc1nnc(C2CC2)s1,3,3,i,-9,4,nt,nt,-1,
CC(=O)N(C(C)=O)S(=O)(=O)c1ccc(N=NN2CCCCC2)cc1,4,4,i,-4,22,12,-19,-19,
CN1CCN(CCC(=O)Nc2ccccc2Cl)CC1,2,6,i,5,-6,-2,-6,-54,
COc1ccc(/C=N/NC(=O)CC(=O)NCCc2ccccc2)cc1OC,nt,nt,i,-12,-1,-9,4,-20,
COc1ccc(NC(=O)CN(C)CC(=O)Nc2cccc(S(=O)(=O)N(C)c3ccccc3)c2)cc1,10,-8,i,-18,-3,-1,10,16,
CSc1ccccc1NC(=S)Nc1ccccc1C(F)(F)F,9,8,i,-3,0,3,-18,-2,
Cc1ccc(C(CCN(Cc2ccccc2)C(=O)c2ccco2)c2ccco2)cc1 (configuration not stated),-3,1,i,40,-2,3,nt,-3,
CCC[N+]1(CC#CC2(O)CCCCC2)CCOCC1,-3,1,i,6,6,-12,nt,-8,
COc1ccc(C=O)cc1Cn1ccnc1,-2,2,i,7,1,nt,1,5,
Nc1c(C(=O)NCc2cccs2)nnn1CC(=O)Nc1cccc(Cl)c1,6,1,i,-1,2,-9,nt,8,
COc1ccc(-c2nc3ccccc3c(=O)o2)cc1OC,-1,0,i,38,16,-8,nt,-84,

# The closing 4 entries of the part before come first, to join the parts.
SMILES,MT1-MMP act inh,MT1-MMP act inh RFP,Rce1 inhib,eIF4H inh,PABP FP inh,CSC inhib,UUG fidelity,Env fusion inh,others
CCC[N+]1(CC#CC2(O)CCCCC2)CCOCC1,-3,1,i,6,6,-12,nt,-8,
COc1ccc(C=O)cc1Cn1ccnc1,-2,2,i,7,1,nt,1,5,
Nc1c(C(=O)NCc2cccs2)nnn1CC(=O)Nc1cccc(Cl)c1,6,1,i,-1,2,-9,nt,8,
COc1ccc(-c2nc3ccccc3c(=O)o2)cc1OC,-1,0,i,38,16,-8,nt,-84,
Cc1cc2cccc(C)c2nc1SCC(=O)NNC(=O)c1ccco1,1,-2,i,-4,4,-5,-23,-6,
N#Cc1ccc(OCC(=O)NCC2(N3CCCCC3)CCCCC2)cc1,2,2,i,-8,-6,-4,-12,3,
COC(=O)C1C2C=CC3(CN(C(C)C)C(=O)C13)O2 (configuration not stated),-3,-3,i,4,-3,6,-2,-2,
COc1ccc(/C=N/NC(=O)c2ccc(COc3cccc4cccnc34)cc2)cc1O,9,9,i,0,-1,2,-8,-8,
CC(C)Oc1ccc(C(=O)N/N=C/c2ccc(-c3ccc(S(=O)(=O)Nc4ncccn4)cc3)o2)cc1,4,6,i,66,25,nt,nt,nt,eIF4H inh retest=-7;PABP FP inh retest=-1
COc1ccc(-c2csc(Nc3cccc(C)n3)n2)cc1OC,2,-7,nt,nt,nt,nt,1,-86,
CCc1nnc(NC(=O)[C@@H](NC(=O)c2cccc(S(=O)(=O)N(CC)CC)c2)C(C)C)s1,-3,-1,i,-2,1,-10,-1,70*,
O=C(Nc1cccc(S(=O)(=O)N2CCOCC2)c1)C1CC1,-3,-1,nt,nt,nt,-17,-20,nt,
Cc1ccc(COC(=O)c2cc(S(=O)(=O)N3CCCCC3)ccc2N2CCOCC2)cc1,-7,-25,i,nt,nt,nt,nt,76*,
O=[N+]([O-])c1ccc(CSc2ccc(-c3ccccn3)nn2)cc1,3,1,i,2,74,20,nt,-3,eIF4H inh retest=21;PABP FP inh retest=40

# From PubChem
